Menin MLL FP FL = qHTS Assay for Inhibitors Targeting the Menin-MLL Interaction in MLL Related Leukemias: Competition With Fluorescein Labeled MLL-derived Peptide. Fluorescence polarization, fluorescein-MLL peptide displacement from menin. FP activity change, % at 61.4 µM. 290,000 tested, under 10 active. AID 1766, 2009; inconclusive = falling polarisation curve, or a change in total fluorescence; inactive = total fluorescence flat and polarisation flat or rising; no compound was filed as active; the % refers to the polarisation; negative = inhibition;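 also: % of control where 0% means no effect; inhibitors lower the polarisation; unlabelled MLL peptide was the positive control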
Sfp inh = qHTS Assay for Inhibitors of Bacillus subtilis Sfp phosphopantetheinyl transferase (PPTase) | 4'-phosphopantetheinyl transferase ffp (Bacillus subtilis), Q9F4F7 | Biochemical Sfp PPTase activity, qHTS | Potency, µM, without a hit: max response, negative = inhibition, most hits filed as inhibitors | actives 3.5% (n = 310,000); active = well fitted inhibition curve with a large enough effect; inconclusive = small, poorly fitted or top-dose-only effect, or another doubt; inactive = no such curve, though single readings can be large or run the other way;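 also: the enzyme is Sfp with the accession as filed and its product quenches rhodamine fluorescence; potency is read from the fitted curve at half-maximal effect; 0% = enzyme reaction without inhibitor and -100% = no enzyme wells; top concentration of the series not given in the record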
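Buffer: 50 mM Hepes-Na pH 7.6, 10 mM MgCl2, 0.01% Nonidet P-40, 0.01% BSA. Enzyme 15 nM, pre-exposed to compound 15 min; substrates then added and fluorescence change tracked over 30 min.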
TRPML1 inh = qHTS for Inhibitors of the Human Mucolipin Transient Receptor Potential 1 (TRPML1). actives 0.02% (n = 390,000). TRPML1-inducible cells, Ca2+ dye fluorescence, FDSS; active compounds read low; inhibition of EC80 agonist-evoked calcium signal. AID 624415, 2012. activity change, negative = inhibition, % (concentration not given with the values); in the data active means activity change below about -50%; inconclusive means about -30% to -50%; inactive means above about -30%;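 also: stimulus is agonist 54-4 at its EC80 concentration; % is scaled to controls: 0 for no effect and ±100 for the full control effect; the text of the record puts the active cut at -80%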
Target sequence (Q9GZU1 whole entry, looked up): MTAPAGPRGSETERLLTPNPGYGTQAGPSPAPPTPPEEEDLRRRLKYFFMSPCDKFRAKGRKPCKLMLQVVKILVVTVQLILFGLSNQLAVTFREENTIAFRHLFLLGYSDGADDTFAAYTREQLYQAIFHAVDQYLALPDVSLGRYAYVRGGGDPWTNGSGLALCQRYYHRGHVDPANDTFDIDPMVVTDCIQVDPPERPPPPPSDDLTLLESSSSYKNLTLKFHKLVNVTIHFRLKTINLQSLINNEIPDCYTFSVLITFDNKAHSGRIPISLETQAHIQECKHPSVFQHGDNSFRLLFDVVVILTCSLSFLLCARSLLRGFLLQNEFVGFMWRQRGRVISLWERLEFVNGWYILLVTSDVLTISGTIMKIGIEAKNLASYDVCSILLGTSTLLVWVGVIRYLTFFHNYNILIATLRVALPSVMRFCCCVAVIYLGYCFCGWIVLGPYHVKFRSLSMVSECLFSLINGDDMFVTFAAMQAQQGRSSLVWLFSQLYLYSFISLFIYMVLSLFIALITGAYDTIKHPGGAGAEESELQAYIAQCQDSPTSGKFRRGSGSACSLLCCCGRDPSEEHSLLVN
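Tet-induced TRPML1-DL cells loaded with Ca8 no-wash calcium dye were read kinetically on FDSS. Compound addition was followed by EC80 agonist 54-4 (4 uM final); inhibition was read over 110 s.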
gsp agonist = qHTS for Agonist of gsp, the Etiologic Mutation Responsible for Fibrous Dysplasia/McCune-Albright Syndrome: qHTS; gsp mutant cells, cAMP HTRF, 30 min; control for the full effect not named in the record; Potency, µM (highest dose often 76.9 µM), inactives show top-dose activation (cAMP increase), usual class: activators; actives 0.13% (n = 340,000); active = well fitted activation curve with a large enough effect; inconclusive = small, poorly fitted or top-dose-only effect, or another doubt; inactive = no such curve, though single readings can be large or run the other way; cell line not stated here;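 also: phosphodiesterase inhibitor Ro 20-1724 added with compounds to block cAMP breakdown; potency is read from the fitted curve at half-maximal effect; nearly all actives have a fitted effect of over 60% in size; about a fifth of the inactives were tested at one dose only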
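Cells stably selected in G418 were plated at 2000/well, grown 16-24 hr, then given compounds in DMSO with the PDE inhibitor […] (300 uM solution added) for 30 min at 37C; cAMP was read by HTRF.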
TRPV1 potentiator = HTS Assay for Compounds that Act as Potentiators of the Vanilloid Receptor 1; actives 0.02% (n = 320,000); potentiation, % at 8.33 µM; AID 540277, 2011; TRPV1-expressing cells, Fluo-8 calcium influx, capsaicin EC20 potentiation; host cell line not named in the record; control for the full effect not named in the record; Transient receptor potential cation channel subfamily V member 1 (Homo sapiens), Q8NER1; active means potentiation above 80%; inconclusive means 30% to 80%; inactive means below 30%; also: 0% is about no effect
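TRPV1-expressing cells were cultured overnight at 35.5C and loaded with Fluo-8 calcium dye for 40 to 90 min at room temperature. After a 10 s baseline, compound was added and calcium influx was read kinetically for 3 min (ex 480/em 520 nm).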
ClpP mod = qHTS Assay for Activators of ClpP | purified B. subtilis ClpP, FRET peptide cleavage, 20 min | Potency, µM (highest dose often 57.5 µM), for the others: at the highest dose activity change, negative = active | actives 1.9% (n = 340,000) | ATP-dependent Clp protease proteolytic subunit (Bacillus subtilis (strain 168)), P80244; active = well fitted falling curve with a large enough effect; inconclusive = small, poorly fitted or top-dose-only effect; inactive = no such curve, though single readings can be large or run the other way; also: potency is read from the fitted curve at half-maximal effect; the source files actives as falling curves though it sought activators and does not explain the sign; nearly all actives have a fitted effect of over 65% in size; many hits overshoot -100%
Target sequence (P80244 whole entry, looked up): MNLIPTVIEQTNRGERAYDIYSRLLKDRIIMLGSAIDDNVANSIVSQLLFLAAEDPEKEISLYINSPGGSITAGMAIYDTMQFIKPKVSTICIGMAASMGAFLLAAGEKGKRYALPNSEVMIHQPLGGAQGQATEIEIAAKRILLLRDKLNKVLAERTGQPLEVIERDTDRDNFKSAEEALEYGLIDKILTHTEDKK
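Buffer: 100 mM Tris/HCl pH8, 100 mM KCl, 0.05% low protease BSA, 2.5% glycerol, 0.01% Tween-20. ClpP 10 microg/mL final; 20 min RT; delta FRET normalized to ADEP and DMSO controls.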
gsp antagonist = qHTS for Antagonists of gsp, the Etiologic Mutation Responsible for Fibrous Dysplasia/McCune-Albright Syndrome: qHTS; gsp-mutant cells, cAMP HTRF, 30 min; control for the full effect not named in the record; actives 0.4% (n = 340,000); Potency, µM (top dose mostly 76.9 µM), without a hit: top-dose activity change, negative = inhibition, actives largely listed as inhibitors; active = falling curve of any shape with a large fitted effect; inconclusive = falling curve, mostly with a smaller effect; inactive = flat or rising curve; cell line not stated here;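 also: intracellular cAMP measured with PDE inhibitor Ro 20-1724 present during compound exposure; potency is read from the fitted curve at half-maximal effect; % is scaled to controls: 0 for no effect and ±100 for the full control effect; nearly all actives have a fitted effect of over 65% in size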
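Cells in G418 medium, seeded 16-24 h, 37C; buffer exchange to DPBS + 1 mM CaCl2, 0.5 mM MgCl2, 0.05% BSA; cpds in DMSO + […] (300 uM stock), 30 min 37C; HTRF cAMP detection.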
* = called active by the depositor; ? = inconclusive; · = not tested or not shown; & = joins results of further samples; [ ] = another dose, or the depositor's remark.

SMILES	Menin MLL FP FL	Sfp inh	TRPML1 inh	gsp agonist	TRPV1 potentiator	ClpP mod	gsp antagonist
Cc1ccc(-c2cc(C(=O)N/N=C/c3c(C)nn(C)c3C)c3ccccc3n2)c(C)c1	-0.9	4%	6	-30%[inhibitor]	23	-3.0%	16%
CC1CCCC(NC(=O)COC(=O)CCc2ccccc2)C1C (centres undefined)	-1.6	14%	-10	0%	-14	0.6%	7%
O=C(NC1CCN(Cc2ccccc2)CC1)c1cccc(S(=O)(=O)Nc2ccc(SC(F)F)cc2)c1	·	·	2	-33%[inhibitor]	·	0.9%	-10%
c1ccc2c(c1)nc(NCc1ccc3c(c1)OCO3)n2CCN1CCOCC1	-1.5	22%	22	7%	2	0.2%	-19%
Cc1cnc(C(=O)OCC(=O)N2c3ccccc3NC(=O)C2(C)C)cn1	-1.7	13%	17	-21%	-3	-2.2%	2%
CS(=O)(=O)N(CC(=O)NCc1ccccc1Cl)c1cccc([N+](=O)[O-])c1	-0.4	12%	16	10%	-4	-0.3%	6%
CC(=NCCc1ccccc1)C1=C(O)CSC1=O	5.0	15%	4	1%	-11	3.8%	11%
COc1ccc(CC(=O)N2CCCC2)c(OC)c1	-2.3	8%	4	-2%[15.4 µM]	-10	·	-2%
COc1cccc(OC)c1C(=O)N1CCN(c2c(Cc3ccccc3)c(C)nc3ncnn23)CC1	4.0	12%	-5	-13%	6	-0.3%	-12%
COc1ccc(Cc2nnc(SCC(=O)NCc3ccco3)o2)cc1	4.0	-4%	-3	13%	-2	-2.5%	10%
CCN1CCN(Cc2ccc(NC(=O)c3ccc(C)c(NC(=O)c4cccc5[nH]ccc45)c3)cc2C(F)(F)F)CC1	-1.0	-8%	10&-9	-4%	-13	?	-2%
CCOCCc1nnc(NC(=O)CS(=O)(=O)Cc2ccccc2)s1	-4.2	-9%	10	-2%	3	·	-2%
O=C(CCc1ccccc1)Nc1nnc(-c2ccccn2)o1	-0.9	-29%	13	-31%[inhibitor]	2	22µM*	8%
C[C@H](NC(=O)c1ccccc1)C(=O)N1CCN(Cc2ccc3c(c2)OCO3)CC1	·	·	2	?	·	0.0%	5%
C[C@H](CO)N1C[C@H](C)[C@H](CN(C)Cc2ccncc2)Oc2ncc(C#CC3CC3)cc2C1=O	·	·	9	-126%[inhibitor]	·	-11%	·
O=C(CSc1ncnc2c1nnn2Cc1ccccc1F)N1CCN(c2ccccc2)CC1	2.8	13%	-18	6%	11	1.6%	7%
CC(C)Cn1cc(C(=O)N2CCOCC2)c2c3ccccc3n(C)c2c1=O	1.9	0%	-1	-30%	4	16µM*	2%
O=C(CCN1C(=O)c2cccc3cccc(c23)C1=O)N1CCOCC1	-1.0	3%	27	16%[15.4 µM]	-19	·	-8%
COC(=O)c1nnn(CC(=O)NC(=O)Nc2ccccc2)c1C(=O)OC	1.1	26%	3	0%[15.4 µM]	5	0.2%	11%
CCS(=O)(=O)c1nc(S(=O)(=O)c2ccc(C)cc2)c(N2CCC(C)CC2)s1	·	4%	7	-6%	-17	0.0%	8%
CCOC(=O)N1CCC(NC(=O)c2ccc3nc(N4CCOCC4)sc3c2)CC1	0.3	7%	4	0%	-35	-9.4%	5%
CC1C(=O)Nc2ccc(S(=O)(=O)N3CCCCCC3)cc21 (centres undefined)	·	·	3	-1%	-2	-2.3%	0%
CCc1noc(C)c1C(=O)Nc1ccc(F)c(F)c1F	·	·	-1	25%[15.4 µM]	7	0.4%	2%
C=CCN1C=CC(=O)[C@@H](O)[C@H]1c1ccccc1Br	·	·	-20	·	·	-0.6%	10%
CCN(CC)c1nc(-c2cccc(OC)c2O)nc2ccccc12	0.6	-26%	30	8%	9	-0.4%	-11%

New compounds follow
SMILES	Menin MLL FP FL	Sfp inh	TRPML1 inh	gsp agonist	TRPV1 potentiator	ClpP mod	gsp antagonist
CCOC(=O)/C=C1\CC(C(=O)OCC)Oc2c(OC)cccc21 (centres undefined)	-1.4[94.6 µM]	-21%	-4	·	·	-5.3%&-4.5%	0%
O=Cc1ccccc1OCCOc1ccccc1C=O	2.8	2%	15	-3%	12	-7.1%	6%
CC(=O)c1ccc(-n2nnnc2SCC(=O)N2CCN(C(=O)c3ccco3)CC2)cc1	1.6	17%	-5	-22%	-4	-1.0%	-3%
O=C(O)CSc1nnc(-c2ccc3c(c2)OCO3)n1-c1ccccc1	-0.6	31%	-6	-33%[inhibitor]	0	·	1%
CCC(=O)c1ccc(OC)c(OC)c1OCc1ccccc1	·	·	17	11%	·	-8.0%	-2%
CCOC(=O)NC(=O)/C(C#N)=C\c1ccccc1	-0.2	3%	10	-2%[15.4 µM]	0	·	14%
O=C(CN1CCN(c2ccc([N+](=O)[O-])cc2)CC1)Nc1ccccn1	-0.6	7%	-15	12%[15.4 µM]	-7	·	-16%
O=C1C(F)=CC(COC(c2ccccc2)(c2ccccc2)c2ccccc2)OC1n1cc(F)c(=O)[nH]c1=O (centres undefined)	·	·	14	-4%	·	0.8%	21%
CCCC(=O)N1CCN(S(=O)(=O)c2cc(Cl)ccc2OC)CC1	0.6	24%	-19	-4%	17	-0.6%	4%
COc1ccc(-c2cc3ccccc3n2CC(O)CNCCO)cc1 (centres undefined)	-4.6	-19%	-3	?	·	11µM*	3%
C[C@]12c3[nH]c4ccccc4c3CCN1C(=O)C(CC(=O)NCc1ccco1)C[C@@H]2C(=O)N1CCOCC1 (some centres undefined)	·	·	-1	·	·	-1.0%	7%
COc1ccc(-c2cc(C(=O)O)c3c(C)nn(-c4ccccn4)c3n2)cc1	1.4	0%	12	?	2	42%	2%
CCOc1cc(C(=S)N2CCOCC2)ccc1OS(=O)(=O)c1ccccc1[N+](=O)[O-]	·	3%	-6	-3%	?	-0.5%	-12%
Cn1c(SCc2cccc(Br)c2)nnc1-c1ccncc1	-2.5	0%	4	8%	1	-3.1%	-1%
CCOC(=O)Cn1c(=NC(=O)C(C)(C)C)sc2cc([N+](=O)[O-])ccc21	3.9	24%	19	-8%	-7	3.4%	4%
Cc1ccc(OCC(=O)N2CCN(C(=O)c3cccs3)CC2)cc1	2.2	8%	-15	-22%	1	-1.4%	-6%
CN1CCN(S(=O)(=O)c2cc([N+](=O)[O-])ccc2Cl)CC1	1.0	11%	-6	-6%[15.4 µM]	16	·	16%
COc1cc(Cl)c(S(=O)(=O)n2cnc(C)c2)cc1Cl	-0.8	-5%	0	-17%	-8	-0.2%	8%
CN(CCCNC(=O)c1nn(C)c2c1CS(=O)(=O)c1ccccc1-2)Cc1ccccc1	3.0	12%	7	6%	-5	-6.8%	20%
COCc1[nH]nc2c1C(C1C=CCCC1)C(C#N)=C(N)O2 (centres undefined)	3.5	3%	34	-1%	-11	-0.5%	1%
CCCc1cc(C(=O)N2CCCC(N3CCN(c4ccc(F)cc4)CC3)C2)no1 (centres undefined)	·	15%	12	?	-7	-1.1%	-8%
Cc1cccc(NC(=O)CSc2nc(C)c(Cc3ccccc3)c(=O)[nH]2)c1	-0.5	21%	6&13	2%	-9	0.1%	-6%
CCOC(=O)c1oc2ccc(Br)cc2c1CSc1nnc(C)s1	0.7	-6%	5	-3%	-16	-1.3%	?
CC1CCCCC1NC(=O)CSc1nncs1 (centres undefined)	3.2	-5%	-2	-50%[inhibitor]	15	0.7%	0%
Cn1c(SCC(=O)Nc2ccc3c(c2)OCCO3)nnc1-c1ccco1	-2.2	-3%	7	25%	-2	-1.3%	-1%

(next part)
SMILES	Menin MLL FP FL	Sfp inh	TRPML1 inh	gsp agonist	TRPV1 potentiator	ClpP mod	gsp antagonist
CCC(=O)NC(=S)Nc1ccc2oc(-c3ccc(OC)cc3)nc2c1	0.5	-5%	17	?	-1	·	4%
FC(F)(F)c1cccc(NC(=S)NCCN2CCOCC2)c1	·	3%	14	-2%	-3	-1.7%	11%
CCCCCC(=O)N1C[C@@H](n2cc(C3CC3)nn2)[C@H](O)C[C@@H]1c1ccc(C)cc1	·	·	1	-56%[inhibitor]	·	-2.6%	·
C=CCn1c(SCC(=O)OCC)nc2cc(C(=O)NCc3ccco3)ccc2c1=O	5.8	-4%	-7	-55%[inhibitor]	-5	-7.9%	2%
CCOc1ccc(Oc2c(/C=N/NC(=O)C3CC3)c(C)nn2-c2ccccc2)cc1	2.9	-11%	15	12%	?	4.2%	-13%
CCOc1c([N+](=O)[O-])cc2c(C)c(C(=O)N3CCN(C)CC3)oc2c1OCC	?	5%	-24	-11%	-9	·	-16%
COc1cc(OC)c(C2N(c3ccccn3)C(=O)C3CCCN32)cc1OC (centres undefined)	4.5	-2%	-7	-13%	1	0.6%	13%
Cc1cccc(OCC(=O)OCC(=O)Nc2ccc(Cl)cn2)c1	·	·	-10	-4%	·	0.6%	5%
CC1CCc2nn(CC(=O)N3CCc4ccccc43)cc2C1 (centres undefined)	-4.0	-7%	-29	18%	-4	1.3%	4%
Cc1cc(Cl)ccc1OCC(=O)OCC(=O)Nc1cccnc1Cl	·	·	-10	-4%	-9	0.8%	5%
CC(C)(C)OC(=O)N/N=C/c1cc(N=Nc2ccccc2)ccc1O	1.4	21%	2	-1%	-28	-6.2%	-23%
COC(=O)C1=CN(c2ccc(F)cc2)C=C(C(=O)OC)C1c1ccc(O)cc1	2.1	-16%	17	-9%	-22	·	-13%
Cc1cccc(C(C)C)c1NC(=O)c1cccnc1	0.6	17%	4	0%	6	-0.8%	-7%
CCN(CC(=O)Nc1cc(C)nn1-c1nc(C)cc(C)n1)Cc1ccccc1	1.2	12%	-17	-2%[15.4 µM]	30	2.0%	1%
CN1CCN(NS(=O)(=O)c2ccc(Cl)cc2)CC1	-0.2	2%	5	19%[15.4 µM]	15	·	0%
